# Compound activity: PubChem BioAssay, National Center for Advancing Translational Sciences (NCATS)
# PINK1 expr mod: A Quantitative High throughput Screen to Identify Chemical Modulators of PINK1 Expression. PINK1 immunofluorescence, high-content cytometry, 24 h. Potency, µM (top dose mostly 76.6 µM), without a hit: top-dose activation (PINK1 increase), usual class: activators. hit rate 0.2% among 410,000. AID 624263, 2012; active = well fitted activation curve with a large enough effect; inconclusive = small, poorly fitted or top-dose-only effect; inactive = flat fitted curve, though single readings scatter; cell line not stated here;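 further: potency means the concentration at half of the fitted maximal effect; % of control where 0% means no effect; nearly all actives have a fitted effect of over 65% in size; a mitochondrial uncoupler was the plate control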
#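 Decision-based qHTS: stable cells, 24 h exposure to five compound concentrations, CCCP as control. Fixed cells stained for PINK1 plus nuclear, mitochondrial and cell markers, cytometer read.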
# TRPML1 agonist: qHTS for Agonists of the Human Mucolipin Transient Receptor Potential 1 (TRPML1); TRPML1-expressing cells, Ca2+ dye fluorescence, FDSS; host cell line not named in the record; reference of the full effect not given here; AID 624414, 2012; Mucolipin-1 (Homo sapiens), Q9GZU1; activation, % (test concentration not listed); hit rate 0.12% among 410,000; in the data active = activation above about 50%; inconclusive = about 30% to 50%; inactive = below about 30%; further: 0% is about no effect; the text of the record puts the active cut at 80%
# Target sequence (Q9GZU1 whole entry, looked up): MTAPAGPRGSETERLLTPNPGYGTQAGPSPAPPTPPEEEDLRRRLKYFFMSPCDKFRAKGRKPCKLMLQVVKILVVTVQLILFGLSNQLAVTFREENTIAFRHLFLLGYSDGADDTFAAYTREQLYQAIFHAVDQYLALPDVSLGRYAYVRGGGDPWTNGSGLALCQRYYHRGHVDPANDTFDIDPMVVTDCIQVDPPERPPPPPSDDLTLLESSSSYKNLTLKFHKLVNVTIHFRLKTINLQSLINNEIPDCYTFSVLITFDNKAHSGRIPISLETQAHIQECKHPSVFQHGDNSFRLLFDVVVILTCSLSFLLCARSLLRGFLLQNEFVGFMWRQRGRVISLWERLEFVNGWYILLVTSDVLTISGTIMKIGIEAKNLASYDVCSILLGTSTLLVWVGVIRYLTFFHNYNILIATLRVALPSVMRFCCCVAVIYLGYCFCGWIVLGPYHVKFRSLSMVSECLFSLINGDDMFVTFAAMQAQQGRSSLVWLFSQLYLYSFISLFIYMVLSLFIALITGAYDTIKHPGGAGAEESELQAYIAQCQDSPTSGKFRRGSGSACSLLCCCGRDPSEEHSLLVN
#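 Cells: TRPML1-DL, 1X Tet inducer, ~16 h at 37 degrees C/5% CO2. Dye: ABD Ca8 no-wash + quencher, 45-90 min RT. Read: 10 s baseline, compound add, 110 s agonist phase; 54-4 EC80 (4uM final), 110 s antagonist phase.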
# Numbers without * were called inactive; ? = inconclusive; & = joins results of further samples. The list is partial. The share of hits here may be higher or lower than overall.
SMILES,PINK1 expr mod,TRPML1 agonist
COc1cccc(CNc2ncnc3onc(-c4ccc(F)cc4)c23)c1,1.0%,4.3
Cc1ccc(NC(=O)c2sc3nc[nH]c(=O)c3c2C)cc1C,-0.6%,-0.7
Cc1cc(C(=O)O)c2c(=O)n(C)c(=O)n(C)c2n1,3.4%,0.0
COc1ccc(S(=O)(=O)N(CCc2ccccc2)CC(=O)NCc2ccc(C)cc2)cc1,0.5%,0.3
O=C(Nc1ccc(Cl)cc1Cl)c1cc(S(=O)(=O)N2CCN(c3ccccc3F)CC2)ccc1F,4.8%,1.3
Cc1ccc(CNC(=O)c2cc3c(s2)-c2c(C)cccc2OC3)cc1,4.4%,2.4
Cc1oc(-c2ccc(C(=O)NCc3ccc(N(C)C)cc3)cc2)nc1COc1ccccc1,3.0%,0.0
Cc1ccc2[nH]c(C)c(CCNC(=O)c3cc4cc(Br)ccc4oc3=O)c2c1,-0.7%,2.9
CCc1ccccc1NC(=O)Cn1ccn(Cc2ccccc2)c(=O)c1=O,-0.4%,-0.4
Cc1c2cnn(CC(=O)Nc3ccc(F)cc3F)c(=O)c2c(C)n1Cc1cccc(Cl)c1,-1.5%,1.0
Cc1ccc(Cn2c(=O)n(-c3ccc(C)cc3)c(=O)c3c2c2cc(C)ccc2n3C)cc1,11%,1.6
CC1CCCCN1S(=O)(=O)c1ccc(C(=O)Nc2sc3c(c2C(N)=O)CC(C)(C)NC3(C)C)cc1 (stereo not drawn),-3.3%,2.3
c1ccc(Cn2nnnc2C(c2ccccc2)N2CCN(Cc3ccncc3)CC2)cc1 (stereo not drawn),2.2%,-0.9
COc1ccccc1NC(=O)CN(C)S(=O)(=O)c1ccc2c(c1)c(=O)n(C)c(=O)n2C,-0.4%,0.2
Nc1c(C(=O)Nc2cccc(C(F)(F)F)c2)c2ccccn2c1C(=O)c1ccccc1,-0.2%,0.3
COc1cccc(CNC(=O)C2CCN(Cc3cc4ccccc4n3Cc3ccccc3)CC2)c1OC,1.3%,3.3
CCOc1ccc(Oc2nc(NCC(C)C)nc(N3CCOCC3)n2)nn1,2.6%,1.3
CC(=O)OCON[N+]([O-])=NC(C)C,0.0%,0.3&-0.6
CC1=C(C(=O)Nc2cccnc2)C(c2cccc(Br)c2)n2nc(SCc3ccccc3)nc2N1 (stereo not drawn),5.5%,0.1
Cc1ccc(C)c(Cn2c(-c3cccs3)nc3ccccc32)c1,22%,4.8
CC(=O)Oc1ccc2cc(-c3nc4c(s3)CCc3ccccc3-4)c(=O)oc2c1,1.8%,?
N#Cc1c(C(F)(F)F)cc(-c2ccc(F)cc2)nc1SCC(=O)Nc1ccccc1,3.3%,2.4
C=C1C=C(C)n2ncc(C(=O)NCCCCCC)c2N1,-0.9%,-1.2
Cc1ccccc1CNC(=O)C(=O)NCC(c1ccc2c(c1)OCO2)N1CCOCC1 (stereo not drawn),-0.8%,0.0
Cc1ccc2oc(-c3ccc(Cl)c(NC(=O)c4ccc(-c5ccccc5[N+](=O)[O-])o4)c3)nc2c1,1.6%,-0.7
CC1CCN(c2nc3c(S(=O)(=O)c4cccc(Cl)c4)nnn3c3ccsc23)CC1,0.6%,1.4
CC(=O)Nc1ccc(/C=C/C(=O)c2ccc(-n3nncc3-c3ccccc3)cc2)cc1,5.2%,-0.3
CCCCn1c(SCC(=O)c2ccccc2)nc2sc3c(c2c1=O)CCCC3,1.1%,-0.4
CC(=O)c1ccc(NC(=O)Cn2nc(C(F)(F)F)c3c2CCCC3)cc1,0.4%,-0.4
CCn1cc2nc(SCc3ccccc3Cl)n(CCc3ccccc3)c(=O)c2n1,1.1%,-0.8

# Next section, starting with the last seven of the part before.
SMILES,PINK1 expr mod,TRPML1 agonist
Cc1ccccc1CNC(=O)C(=O)NCC(c1ccc2c(c1)OCO2)N1CCOCC1 (stereo not drawn),-0.8%,0.0
Cc1ccc2oc(-c3ccc(Cl)c(NC(=O)c4ccc(-c5ccccc5[N+](=O)[O-])o4)c3)nc2c1,1.6%,-0.7
CC1CCN(c2nc3c(S(=O)(=O)c4cccc(Cl)c4)nnn3c3ccsc23)CC1,0.6%,1.4
CC(=O)Nc1ccc(/C=C/C(=O)c2ccc(-n3nncc3-c3ccccc3)cc2)cc1,5.2%,-0.3
CCCCn1c(SCC(=O)c2ccccc2)nc2sc3c(c2c1=O)CCCC3,1.1%,-0.4
CC(=O)c1ccc(NC(=O)Cn2nc(C(F)(F)F)c3c2CCCC3)cc1,0.4%,-0.4
CCn1cc2nc(SCc3ccccc3Cl)n(CCc3ccccc3)c(=O)c2n1,1.1%,-0.8
CCCCCNC(=O)c1cc2c(=O)n3ccccc3nc2n1C,0.9%,-0.7
CN(C)c1ccc(C(CNC(=O)c2ccccc2Cl)N2CCCC2)cc1 (stereo not drawn),-1.6%,-1.1
COc1ccc(-c2cn3cccnc3n2)cc1NC(=O)Nc1ccc(Cl)cc1,2.5%,3.0
C(=Nc1cnc2ccccc2c1)c1cccnc1,0.0%,-0.8
Cc1ccc2oc(C(=O)N3CCC(c4nc5ccccc5s4)CC3)c(C)c2c1,3.0%,54*
COc1ccc(NC(=O)CC2C(=O)N(c3ccccc3)C(=O)N2Cc2cccnc2)cc1 (stereo not drawn),2.0%,-0.4
CCCN(CCC)C(=O)Cn1c(=O)n(-c2ccc(C)c(C)c2)c(=O)c2c3c(sc21)CCCCC3,0.4%,-0.6
CCOC(=O)N1CCN(C(=O)CN(c2cccc(Cl)c2)S(=O)(=O)c2ccccc2)CC1,-5.6%,0.5
COc1ccc(-n2c(-c3ccco3)nc3c(cnn3-c3ccccc3Cl)c2=O)cc1,2.6%,0.1
CCCn1c(CCC(=O)Nc2ccc(OCC)cc2)nc2cccnc21,3.1%,0.5
CCCOc1ccc(C(=O)Nc2cc(-c3nc4ccccc4[nH]3)ccc2C)cc1,0.7%,0.8
Cc1ccc(NC(=O)Cn2cc(C(=O)C3CCCCC3)c3ccccc32)cc1,2.2%,0.6
CC(=O)c1cccc(NC(=O)C(CC(C)C)NS(=O)(=O)c2ccc3c(c2)CCN3C(C)=O)c1 (stereo not drawn),4.0%,0.9
CSc1ccc(/C=C2\C=C(C(O)c3ccc(SC)cc3)c3ccccc32)cc1 (stereo not drawn),0.6%,0.3
COc1ccc(N(CC(=O)N2CCCCC2)S(=O)(=O)c2ccc(OC)c(OC)c2)cc1,0.3%,-0.6
CCCOc1ccc(C(=O)Nc2cc3nn(-c4ccc(CC)cc4)nc3cc2C)cc1,-2.8%,-0.6
CCc1cccc(NC(=O)Cn2c(=O)n(Cc3ccccc3)c(=O)c3c(C)c(C(=O)N(C)C)sc32)c1,1.3%,2.1
O=C(c1cccc(Cl)c1)N1CCC(c2nc3ccccc3o2)CC1,1.0%,2.5
Cc1ccccc1CCNC(=O)C1CCN(S(=O)(=O)c2ccc3c(ccn3C)c2)CC1,0.5%,0.7
Cc1nc(SCC(=O)Nc2ccc(Cl)cc2C(F)(F)F)[nH]c(=O)c1Cc1ccccc1,-0.1%,-0.7
CCOC(=O)c1ccc(N2C(=O)c3[nH]nc(-c4ccc(OCC)cc4)c3C2c2ccc(OC)cc2OC)cc1 (stereo not drawn),5.1%,1.8
COc1cccc(OC)c1C(=O)NCCc1sc(-c2cccc(F)c2)nc1C,2.2%,2.9
Cc1ccc(S(=O)(=O)c2nnn(CC(=O)Nc3ccccc3C)c2N)cc1C,0.3%,0.5
O=C(CSc1nc2c(oc3ccccc32)c(=O)n1-c1ccccc1)Nc1ccccc1F,0.1%,1.0
CCc1cccc(OCC(=O)Nc2ccc(S(=O)(=O)Nc3ncccn3)cc2)c1,0.5%,2.0
CCOC(=O)C1CCN(C(c2cccc(F)c2)c2c(O)cc(C)n(Cc3ccco3)c2=O)CC1 (stereo not drawn),0.8%,0.2
CCc1ccc(NC(=O)CCNS(=O)(=O)c2ccc3c(c2)oc(=O)n3C)cc1,0.9%,-0.8
CCC(Sc1nc2ccccc2c2nc(CCc3c(C)n[nH]c3C)nn12)C(=O)Nc1ccc(OC)cc1 (stereo not drawn),4.6%,0.5
CCc1cccc(NC(=O)c2nc(-c3ccncc3)no2)c1,-1.8%,2.6
Cc1ccccc1-c1noc(-c2ccc(N3CCOCC3)c([N+](=O)[O-])c2)n1,0.0%,-0.2

# Overlap with the part before: four compounds, followed by the next part.
SMILES,PINK1 expr mod,TRPML1 agonist
CCc1ccc(NC(=O)CCNS(=O)(=O)c2ccc3c(c2)oc(=O)n3C)cc1,0.9%,-0.8
CCC(Sc1nc2ccccc2c2nc(CCc3c(C)n[nH]c3C)nn12)C(=O)Nc1ccc(OC)cc1 (stereo not drawn),4.6%,0.5
CCc1cccc(NC(=O)c2nc(-c3ccncc3)no2)c1,-1.8%,2.6
Cc1ccccc1-c1noc(-c2ccc(N3CCOCC3)c([N+](=O)[O-])c2)n1,0.0%,-0.2
CCOC(=O)c1ccccc1NC(=O)NCc1cccn1Cc1ccc(F)cc1,4.7%,4.8
CCOc1ccc(S(=O)(=O)Nc2ccc3c(c2)c(C(C)=O)c(C)n3S(=O)(=O)c2ccc(OCC)cc2)cc1,3.1%,1.2
Nc1c(C(=O)Nc2ccc(OC(F)(F)F)cc2)sc2nc(-c3ccncc3)ccc12,5.1%,1.7
CCOc1ccccc1CNC(=O)CN1C(=O)CCc2cc(S(=O)(=O)N3CCCCC3)ccc21,1.9%,-0.7
COc1ccccc1CNC(=O)c1cc(S(=O)(=O)N2CCCCCC2)cn1C,1.4%,1.4
COc1ccc(-c2noc(COc3cc(C)c(Br)c(C)c3)n2)cc1OC,0.7%,-0.3
Cc1ccc(CCNC(=O)c2cc3sccc3n2Cc2ccc(Cl)cc2)cc1,8.4%,0.4
CCC(=O)N1CCc2cc(Br)cc(S(=O)(=O)NCc3cccc(OC)c3)c21,4.0%,-1.0
COc1cc(CCC(=O)NCc2ccc3c(c2)CCN3C(=O)c2cccc(C)c2)cc(OC)c1OC,-0.5%,0.9
COc1ccc2c(c1)c1c(c(=O)n(CCc3ccccc3)c(=O)n1Cc1ccccc1)n2C,-0.4%,-0.4
CCc1c(C)c2cc3c(c(C)c2oc1=O)OCN(CCc1ccccc1F)C3,3.3%,-0.8
Cc1ccccc1CN1C(=O)c2ccccc2Sc2ccc(C(=O)NC(C)c3ccccc3)cc21 (stereo not drawn),0.4%,0.2
Cc1ccc(CNC(=O)CN2C(=O)CCc3cc(S(=O)(=O)N4CCCCC4)ccc32)cc1,-0.6%,-0.6
COc1ccc(CC2C(=O)Nc3ccc(Br)cc32)cc1OC (stereo not drawn),-0.7%,0.5
Cc1cccc(C(=O)Nc2cc3c(cc2N2CCCCC2)n(C)c(=O)n3C)c1,1.4%,-1.5
Cc1c(Cl)cccc1NC(=O)c1ncn(-c2ccccc2)n1,-2.2%,-0.4
Cc1ccc(C)c(NC(=O)Cn2ccn(-c3ccc(F)cc3)c(=O)c2=O)c1,2.5%,-0.4
Cc1nc2cccnc2n1C1CCN(C(=O)Nc2ccccc2)CC1,1.0%,0.5
CC(C)C1N=C2c3ccccc3N=C(SCC(=O)NCc3ccc(F)cc3)N2C1=O (stereo not drawn),12%,-0.3
COc1ccccc1CNC(=O)CCC(=O)N1Cc2ccccc2Oc2ncccc21,-1.1%,-0.2
O=C(CSc1nc2ccccc2nc1Cc1ccc(Cl)cc1)Nc1ccc2c(c1)OCO2,2.7%,0.0
COc1ccccc1NC(=O)c1oc2ccccc2c1NC(=O)COc1ccccc1OC,2.1%,0.0
CCCN1CNc2c(c(=O)[nH]c(=S)n2Cc2ccc(OC)c(OC)c2)C1,1.8%,-0.2
CCC(=O)N1CCc2cc(Br)cc(S(=O)(=O)N3CCCC(C(=O)Nc4ccc(OC)cc4OC)C3)c21 (stereo not drawn),2.0%,-0.2
Cc1cccc(C2NC(=O)c3c(sc4c3CCN(C)C4)N2)c1O (stereo not drawn),-1.1%,2.5
COc1ccc(CNC(=O)C2CCCN(C(=O)N3CCOc4ccccc43)C2)cc1 (stereo not drawn),-0.7%,1.1
CC(=O)Nc1ccccc1-c1nc2ccccc2n(CC(=O)Nc2ccc(C)c(Cl)c2)c1=O,0.5%,0.5
CCCSCCCNC(=O)CN1C(=O)COc2ccc(S(=O)(=O)N3CCCCCC3)cc21,2.2%,1.2
CCCNC(=O)CCc1c(C)nc2nc(CNC(=O)c3ccccc3)nn2c1C,3.5%,1.5
CC(=O)Nc1ccc(NC(=O)c2cc(-c3cccs3)on2)cc1,0.7%,-0.2
CCc1ccc(NS(=O)(=O)c2cc(Br)cc3c2N(C(C)=O)CC3)cc1,-0.7%,-0.9
CN(C(=O)c1cc2nc(-c3ccc4c(c3)OCO4)cc(C(F)(F)F)n2n1)c1ccc(OC(F)(F)F)cc1,-0.1%,-0.3
O=C(c1ccco1)n1nc(-c2ccccc2)nc1NCc1ccc(F)cc1,-1.2%,2.0
CCCC(=O)N1CCN(c2nc3c(OC)ccc(C)c3s2)CC1,-1.0%,0.1
CCOc1ccc(-c2cc(NC(=O)Nc3ccccc3C(F)(F)F)c(C(=O)OC)s2)cc1,0.4%,-0.5
Cc1ccc(C)c(NC(=O)CSc2nnc(C)n3c2cc2occc23)c1,-1.5%,-1.0
Nc1cc(=O)[nH]c2c1CCC2,0.1%,0.8
CCCCn1c(SCC(=O)Nc2ccc(OCC)cc2)nc2ccsc2c1=O,6.8%,1.3
